High-throughput results deposited in PubChem BioAssay by several laboratories.
ALR inh: human ALR oxidase inhibition via reduced H2O2; P55789; purified ALR, DTT oxidation, H2O2 HRP-luminol luminescence; inhibition, % (test concentration not listed); 3.8% of 290,000 active; AID 485317;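 active = mean and each replicate at 75% or more; inconclusive = only one of the two met; inactive = neither met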;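 note: stock transfer was 7.5 nL into about 7.5 µL; 0% = neutral wells and 100% = wells with inactivated enzyme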
rRNA inh HTS: selective bacterial rRNA inhibition in E. coli; 1.6% of 350,000 active; AID 720706; GFP signal change (wild-type ribosome), % (no concentration beside the values); E. coli WT GFP vs humanized-ribosome RFP mutants, fluorescence, 24 h; active compounds read low; DMSO median 0, no signal -100;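 active = significant combined selectivity score with lowered wild-type GFP, culture density cut under 30%, mutant RFP and density less affected; inactive = any of these conditions unmet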; note: one replicate is shown; some compounds called inactive have numbers as strong as hits
Calb FLC: C. albicans growth modulation with fluconazole | C. albicans CaCi-2 (fluconazole-resistant clinical isolate) + fluconazole, Alamar Blue growth, 48 h | growth inhibition, % (test concentration not listed) | 0.57% of 300,000 active | AID 1979;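 active = most replicates above 75%; inconclusive = exactly half above 75%; inactive = most below 75%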;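 note: all wells also contain fluconazole at 8 µg/ml as a sub-toxic cotreatment; 0% = median of DMSO wells and 100% = median of geldanamycin control wells; wells of about 8 µL received 7.5 nL stock; the first replicate is given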
LANA-H2A inh: blocks KSHV LANA binding to histone H2A/H2B; cell-free LANA-H2A/H2B peptide, fluorescence polarization; inhibition, % (no concentration beside the values); 0.6% of 320,000 active; in the data active = inhibition mostly above about 10%, no sharp cut-off; inactive = mostly below about 6.7%;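 note: stock transfer was 7.5 nL into about 10 µL; 0% = median of vehicle wells and 100% = median of positive control wells; one replicate is shown; the record names a cut of 25% in any replicate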
Target sequence (Q9QR71 whole entry, looked up): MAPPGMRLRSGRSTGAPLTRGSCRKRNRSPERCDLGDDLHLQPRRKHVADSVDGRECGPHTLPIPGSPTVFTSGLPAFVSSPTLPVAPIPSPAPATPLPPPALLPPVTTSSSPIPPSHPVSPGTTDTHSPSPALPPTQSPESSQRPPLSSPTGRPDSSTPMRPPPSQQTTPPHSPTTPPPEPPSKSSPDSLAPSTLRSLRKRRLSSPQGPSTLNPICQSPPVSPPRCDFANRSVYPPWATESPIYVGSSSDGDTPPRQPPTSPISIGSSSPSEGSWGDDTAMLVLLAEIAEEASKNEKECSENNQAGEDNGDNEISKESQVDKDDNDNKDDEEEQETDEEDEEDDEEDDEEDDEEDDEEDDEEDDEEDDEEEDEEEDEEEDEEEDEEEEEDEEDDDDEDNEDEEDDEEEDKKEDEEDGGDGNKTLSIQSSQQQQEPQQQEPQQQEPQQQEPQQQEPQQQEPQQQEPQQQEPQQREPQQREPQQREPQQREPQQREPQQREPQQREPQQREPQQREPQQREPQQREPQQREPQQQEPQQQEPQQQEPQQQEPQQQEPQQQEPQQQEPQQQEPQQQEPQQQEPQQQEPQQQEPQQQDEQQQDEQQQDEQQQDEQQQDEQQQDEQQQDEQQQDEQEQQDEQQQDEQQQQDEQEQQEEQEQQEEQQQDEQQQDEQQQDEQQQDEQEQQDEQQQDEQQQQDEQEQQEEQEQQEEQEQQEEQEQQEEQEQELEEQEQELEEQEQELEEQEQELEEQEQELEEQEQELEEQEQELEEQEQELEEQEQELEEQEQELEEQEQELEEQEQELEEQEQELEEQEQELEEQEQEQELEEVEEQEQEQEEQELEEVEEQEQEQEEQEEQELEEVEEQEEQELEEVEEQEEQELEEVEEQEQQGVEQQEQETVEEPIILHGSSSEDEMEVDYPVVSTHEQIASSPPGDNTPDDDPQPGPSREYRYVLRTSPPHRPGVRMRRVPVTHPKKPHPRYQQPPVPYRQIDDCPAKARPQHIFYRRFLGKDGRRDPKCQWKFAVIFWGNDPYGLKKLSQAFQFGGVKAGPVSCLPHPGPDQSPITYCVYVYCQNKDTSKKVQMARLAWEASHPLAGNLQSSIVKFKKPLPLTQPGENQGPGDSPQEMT
Beta apoptosis: beta cell apoptosis inhibition; INS-1E cytokine-induced death, ATP luminescence, 48 h; percent of positive-control rescue, neutral wells zero; protection from apoptosis, % (test concentration not listed); AID 435005; 0.8% of 300,000 active;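 active = all replicates at 75% or more, or half of them and the mean; inconclusive = half reach 75% but not the mean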;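 note: 0% = cytokine-treated negative control wells and 100% = positive control rescue; higher means more ATP so stronger rescue from cytokine killing; wells of about 40 µL received 100 nL stock; the first replicate is given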
Bfl-1 A1 inh: inhibitors of the anti-apoptotic protein A1, read as caspase activation | MEF A1-2A-BIM cells, Caspase-Glo 3/7 luminescence, 3 h; percent of clofoctol response, vehicle zero | caspase activation, % (no concentration beside the values) | 0.066% of 330,000 active;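 active = over half of replicate activation scores above 10%, or exactly half above 10 with the replicate mean above 10; inconclusive = replicate mean below 10 yet half the replicates above 10; inactive = over half of replicates below 10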;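 note: wells of about 30 µL received 50 nL stock; many hits fall short of the cut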
Beta2AR agonist: activates human beta-2 adrenergic receptor causing internalization; Am2.2-beta2AR cells, FAP receptor internalization, flow cytometry; reference of the scale not given here; response, % (no concentration beside the values); 0.43% of 340,000 active;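 active = response above a set limit, near 3 SD of response in nonfluorescent compounds, cut at about 42% in these data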;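 note: stock transfer was 100 nL into about 11 µL; a reference agonist was the positive control; negative values mostly stem from fluorescent compounds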
T cruzi repl: T. cruzi replication inhibition | 1.4% of 300,000 active | AID 1885 | inhibition, % (concentration not given with the values) | T. cruzi beta-gal in NIH3T3, luminescence, 90 h;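 active = mean inhibition across valid replicates above about 55%, limit read from the data; inconclusive = mean below that limit but half or more replicates reach it; inactive = mean below it, under half of replicates reach it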;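 note: signal also drops with host cell toxicity which is not excluded here; 0% = plate median of DMSO wells and 100% = zero luminescence signal; higher percent means less beta-gal luminescence so fewer parasites; stock transfer was 50 nL into about 50 µL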
rRNA inh HTS OD600: further read-out of rRNA inh HTS, marked with its call; OD600 change, %; measured here: OD600 growth;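 optical density of the mix in the first replicate; 0 = DMSO median and -100 = no signal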
rRNA inh HTS RFP: second read-out of rRNA inh HTS, no call of its own (marks repeat the call); RFP signal change, %; measured here: RFP humanized mutant strains;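 first replicate; 0 = DMSO median and -100 = no signal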
* = called active by the depositor; ? = inconclusive; nt = no result given.

Order of results: ALR inh	rRNA inh HTS	rRNA inh HTS OD600	rRNA inh HTS RFP	Calb FLC	LANA-H2A inh	Beta apoptosis	Bfl-1 A1 inh	Beta2AR agonist	T cruzi repl
1: Cc1ccc(NCC(=O)N/N=C/c2ccncc2)cc1
 : nt	7.9	9.3	-0.1	21.3	2.3	-3.4	0.2	-1.5	-2.0
2: O=C(NCC(c1cccs1)N1CCOCC1)C1CCN(S(=O)(=O)c2ccccc2C(F)(F)F)CC1 (centres undefined)
 : -4.9	-5.0	-3.5	2.3	-3.7	-1.8	-6.4	0.2	3.9	9.0
3: COc1ccc(OCCNc2cc(Cl)ccc2[N+](=O)[O-])cc1
 : -2.0	12.9	14.8	3.0	21.3	-1.1	0.9	0.2	-2.8	9.6
4: O=C(Nc1ccc(S(=O)(=O)Nc2nccs2)cc1)c1ccccc1OC(F)F
 : 31.2	6.2	2.1	0.7	nt	2.7	-2.9	-0.1	1.3	nt
5: O=C(CCCOc1ccc(Cl)cc1)N1CCOCC1
 : 0.1	nt	nt	nt	15.0	-1.5	-5.2	?	2.8	0.5
6: COCCN(CCOC)S(=O)(=O)c1ccc(/C(O)=C(\C#N)c2nc3ccccc3[nH]2)cc1
 : nt	15.1	2.3	-1.8	8.8	-4.5	0.2	1.6	9.8	-4.0
7: CN(CC(=O)OCC(=O)NC(=O)c1cccn1C)S(=O)(=O)c1ccc(Cl)cc1
 : -26.9	nt	nt	nt	2.8	1.9	-4.9	-0.3	11.5	-17.7
8: Cc1ccc(NC(=O)CNC(=O)c2ccc(C)o2)cc1
 : -11.3	2.6	-5.4	-6.4	6.0	-0.2	1.9	0.5	-3.4	-10.0
9: CCNS(=O)(=O)c1ccc(NC(=O)Cc2ccc(F)cc2)cc1
 : -12.4	-0.4	0.9	4.7	3.0	0.8	3.5	-1.1	-0.3	-6.4
10: Cc1nnc(N(C)C(=O)c2cnccn2)s1
 : -8.7	4.5	-0.7	-4.2	-2.2	0.9	-2.2	0.7	6.0	-16.1
11: O=C(Cc1ccccc1)Nc1ccc(NC(=S)NC(=O)c2ccccc2)cc1
 : -6.5	3.3	12.4	-0.2	nt	-0.5	11.6	0.0	-6.1	7.4
12: COc1ccc([N+](=O)[O-])cc1CSc1nnc(NC(C)=O)s1
 : -7.6	13.9	-1.2	0.7	-6.6	3.0	-3.7	0.9	-5.5	-6.5
13: COC(C/C=C\C(=O)[C@@H](C)OCc1ccccc1)OC
 : 47.3	nt	nt	nt	5.8	-5.5	-4.0	0.8	nt	1.1
14: COC(=O)c1nn(-c2c(C)n(C)n(-c3ccccc3)c2=O)cc1O
 : -8.7	nt	nt	nt	3.4	-4.8	-1.6	0.7	-2.8	-1.3
15: CNC(=O)COc1ccc(Nc2nnc(-c3ccc(C)c(S(N)(=O)=O)c3)c3ccccc23)cc1
 : -25.9	-18.9	-13.9	0.5	nt	1.1	4.6	-0.5	-3.6	-1.7
16: Cc1ccc(C(=O)NC(=S)NCC(=O)c2ccccc2)cc1
 : -0.7	nt	nt	nt	25.7	0.1	-9.0	0.4	-2.3	-11.8
17: O=C(Nc1cc(=O)[nH]c2ncnn12)c1ccco1
 : 5.8	5.1	-4.3	-6.1	3.3	-0.4	-5.9	-0.9	3.4	-6.7
18: COc1ccc(N(CC(=O)NC2CCCCC2)C(=O)c2ccc(C)s2)cc1OC
 : 1.8	-2.2	-11.9	-0.2	10.5	1.2	0.6	0.0	10.4	-5.5
19: COc1ccc(CCN2CCCC(CN(C)Cc3cc(OC)c(OC)c(OC)c3)C2)cc1 (centres undefined)
 : -11.0	16.9	7.8	2.9	-2.8	2.8	-2.0	0.2	4.2	41.9
20: Cc1ccc(C)c(NS(=O)(=O)c2cc3c4c(c2)CC(=O)N4CCC3)c1
 : 10.3	-10.5	-4.8	3.5	-24.9	-3.5	1.1	-0.1	5.2	-13.2
21: COc1ccc(N2CCN(C(=O)c3ccc(NS(=O)(=O)c4cccc(F)c4)cc3)CC2)cc1
 : -13.8	nt	nt	nt	34.1	-5.8	-0.5	-1.6	-1.3	7.2
22: O=C(CCCn1c(=O)[nH]c2ccsc2c1=O)N1CCN(Cc2ccc3c(c2)OCO3)CC1
 : nt	nt	nt	nt	-4.0	-1.5	-3.4	0.4	-21.3	3.5
23: CSCCCN1CCC(n2nccc2NC(=O)CCCc2ccccc2)CC1
 : -8.4	8.3	7.7	-0.6	-5.7	-3.5	-6.0	-0.1	0.7	18.4
24: CCCNC(=O)NC(=O)CSc1nc2cc(C(=O)OC)ccc2c(=O)n1-c1ccccc1
 : -5.7	nt	nt	nt	4.1	-4.0	-2.6	-1.8	-4.2	-1.4
25: CCN(CC)c1ccc([C@H]2[C@@H]3CCCC[C@]3(O)CCN2CC(=O)NCc2ccco2)cc1
 : 99.0*	-1.0	3.4	1.4	-32.9	-1.1	2.0	0.4	22.5	19.2
26: Nc1nonc1OCCN1CCN(c2ccc([N+](=O)[O-])c3cccnc23)CC1
 : -45.0	-11.7	-22.8	-0.1	18.1	0.5	-0.8	0.7	-7.3	26.8
27: Cc1ccc(-c2nnc(C)c(N3CCOCC3)n2)cc1
 : -13.7	nt	nt	nt	-5.3	4.9	-2.6	-0.7	-6.9	-3.0
28: O=C(c1ccc(Cl)s1)N1CCN(C23CC4CC(CC(C4)C2)C3)CC1
 : 0.0	nt	nt	nt	-7.2	1.4	-2.2	-1.1	-6.2	27.2
29: Cc1cccc(NC(=O)CC2NCCNC2=O)c1 (centres undefined)
 : 4.7	nt	nt	nt	2.3	-4.7	-1.0	0.6	-7.9	-1.8
30: CC(C)(C)NC(=O)C(=O)NCCC1=CCCCC1
 : -2.7	nt	nt	nt	-20.9	-3.2	0.0	0.5	0.5	-7.6
31: COc1ccc(NS(=O)(=O)c2ccc(NC(=S)NC(=O)/C=C/c3ccccc3)cc2)nn1
 : 24.5	nt	nt	nt	-17.4	1.3	-8.7	0.0	8.0	-9.9
32: CCOC(=O)c1cccc(NC(=O)C2CCCO2)c1 (centres undefined)
 : -4.7	nt	nt	nt	11.6	7.2	0.2	-0.4	11.6	-4.2
33: O=[N+]([O-])c1ccc(O)c(P(=O)(c2ccccc2)c2ccccc2)c1
 : -3.3	-6.2	-12.2	2.9	99.8*	-6.3	-5.7	0.8	-4.6	-5.5
34: CSc1ccccc1NC(=O)c1noc(C)c1[N+](=O)[O-]
 : 3.1	1.8	1.5	-3.7	7.5	nt	nt	nt	2.5	-12.9
35: CC(C)OC(=O)c1cn(-c2ccccc2)nc1-c1ccc2c(c1)OCCO2
 : -13.1	nt	nt	nt	4.6	-3.6	0.7	1.1	2.8	20.7
36: CC(C)(CNC(=O)c1cccs1)N1CCOCC1
 : -1.5	0.2	4.0	-0.9	nt	-4.3	-4.6	0.5	0.2	nt
37: CC(C)(C)NC(=O)C1CCN(c2ccc(S(=O)(=O)N3CCOCC3)cc2Cl)CC1
 : -2.1	3.4	2.0	1.0	2.8	0.5	-4.6	0.4	25.9	-13.0
38: CCc1ccc(/C=C\C(=O)N2CCCC2)cc1
 : -8.3	-19.1*	-4.1*	-2.6*	1.1	0.4	nt	-2.0	-2.9	9.0
39: CCN1C(=O)/C(=C\c2ccc3c(c2)OCO3)C(C(=O)OC)=C1C
 : -23.3	nt	nt	nt	18.0	0.6	-2.9	0.1	3.7	-9.0
40: N#Cc1ccc(CSc2nnc(-c3ccncc3)n2CCc2ccccc2)cc1
 : 0.4	nt	nt	nt	-7.0	1.3	nt	0.7	-4.0	64.6*
41: Cc1nnc(SCC(=O)N2CCCc3ccccc32)[nH]c1=O
 : 49.9	nt	nt	nt	-8.0	-0.3	-0.4	0.7	1.0	-7.4
42: CCC(=O)Nc1sc(C(=O)Nc2ccccc2OC)c(C)c1C(=O)OC
 : -5.6	13.7	4.8	5.5	-2.0	3.9	-0.9	-1.0	-17.0	6.7
43: Cc1cccc(C)c1N1C(=O)CCC(C)(C)C1=O
 : 1.6	9.6	1.1	1.3	3.4	-4.0	-9.2	0.3	-4.6	5.2
44: O=C(N/N=C/c1cccc(OCc2ccccc2)c1)c1ccc(Br)o1
 : -0.2	-7.9	-27.2	10.0	14.9	5.9	nt	0.3	11.2	8.3
45: Cc1ccc(S(=O)(=O)N2CCN(C(=O)CN3CCN(C)CC3)C2)cc1
 : nt	11.6	5.1	-1.9	1.4	-3.2	-0.5	0.2	1.3	19.0

Profiles as entered above. Values in the order: ALR inh	rRNA inh HTS	rRNA inh HTS OD600	rRNA inh HTS RFP	Calb FLC	LANA-H2A inh	Beta apoptosis	Bfl-1 A1 inh	Beta2AR agonist	T cruzi repl
CSc1ccccc1NC(=O)c1noc(C)c1[N+](=O)[O-] in the list: 3.1	1.8	1.5	-3.7	7.5	nt	nt	nt	2.5	-12.9
Cc1ccc(S(=O)(=O)N2CCN(C(=O)CN3CCN(C)CC3)C2)cc1 in the list: nt	11.6	5.1	-1.9	1.4	-3.2	-0.5	0.2	1.3	19.0
COc1ccc(NS(=O)(=O)c2ccc(NC(=S)NC(=O)/C=C/c3ccccc3)cc2)nn1 in the list: 24.5	nt	nt	nt	-17.4	1.3	-8.7	0.0	8.0	-9.9
N#Cc1ccc(CSc2nnc(-c3ccncc3)n2CCc2ccccc2)cc1 in the list: 0.4	nt	nt	nt	-7.0	1.3	nt	0.7	-4.0	64.6*
Cc1nnc(SCC(=O)N2CCCc3ccccc32)[nH]c1=O in the list: 49.9	nt	nt	nt	-8.0	-0.3	-0.4	0.7	1.0	-7.4

(more compounds)
Order of results: ALR inh	rRNA inh HTS	rRNA inh HTS OD600	rRNA inh HTS RFP	Calb FLC	LANA-H2A inh	Beta apoptosis	Bfl-1 A1 inh	Beta2AR agonist	T cruzi repl
46: CCOC(=O)c1ccc(NC(=S)NNC(=O)c2cc(-c3cccnc3)nc3ccccc23)cc1
 : 15.3	-2.2	10.3	-3.4	-3.1	7.7	2.4	-1.0	-4.0	2.8
47: Cc1ccc(-c2noc(-c3cc(C(C)(C)C)nn3Cc3ccccc3)n2)cc1
 : -11.2	-0.2	3.9	-1.9	1.6	0.8	2.4	-0.7	-3.8	4.3
48: CC(C)(C)NS(=O)(=O)c1ccc(NS(=O)(=O)Cc2ccccc2)cc1
 : -6.5	nt	nt	nt	7.4	1.2	-4.0	0.6	1.1	-8.0
49: CC(=O)Nc1ccccc1C(=O)C(=O)NCCc1ccccc1
 : 0.8	1.6	-6.2	-1.4	0.6	1.1	-0.7	-0.7	-1.7	-10.5
50: O=C(NCCCN1CCOCC1)c1cn(-c2ccccc2)nc1-c1ccc(F)cc1
 : nt	1.4	6.1	3.2	nt	-4.5	-0.7	0.3	-24.8	nt
51: Cc1cc(NC(=O)NC(=O)c2cccc(OC(F)(F)C(F)F)c2)n[nH]1
 : -5.6	nt	nt	nt	3.8	-4.7	-0.5	-0.3	-3.0	0.5
52: C=CCN(C(=O)Cc1cccs1)c1nc(-c2ccc(S(C)(=O)=O)cc2)cs1
 : -6.8	-13.3	-23.3	-8.3	14.0	1.1	7.5	1.5	-7.6	13.8
53: Fc1cccc(CN2CCCCCCC2)c1
 : 0.6	nt	nt	nt	5.2	-3.8	-13.1	-0.7	-14.8	5.4

Some of the compounds tested (hit frequency here may not be typical).
